# Source: PubChem BioAssay
# miR-21 reporter – qHTS Assay for Modulators of miRNAs and/orActivators of miR-21; HeLa miR-21 FLuc reporter, luciferase, 48 h; Potency, µM (titrated, usually from 38.3 µM), for inactives: at the highest dose reporter change, positive = more light; AID 2288, 2010; 340,000 tested, under 10 active; active = well fitted rising curve with a large enough effect; inconclusive = small, poorly fitted or top-dose-only effect; inactive = no such curve, though single readings can be large or run the other way;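 also: % of control where 0% means no effect; miR-21 action dims this reporter so a rising signal means less miR-21 action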
#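 Compounds were titrated across several concentrations (up to approximately 40 uM) and incubated 48 hours with HeLa miR-21-FLuc reporter cells (miR-21 target sequence downstream of FLuc, endogenous miR-21). Readout was firefly luciferase luminescence after lytic detection reagent.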
# GLA inh pH 4.5 – qHTS Assay for Inhibitors of Human alpha-Galactosidase at pH 4.5; 230,000 tested, under 10 active; purified enzyme, 4-MU-alpha-Gal fluorescence, pH 4.5; AID 1467, 2008; activity change, negative = inhibition, % at 105 µM; inconclusive = small, poorly fitted or top-dose-only inhibition, or a rising curve; inactive = flat fitted curve, though single readings scatter; no compound was filed as active;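 also: 0% = full activity with enzyme and -100% = basal without enzyme; dose as in the result columns while the protocol names 77 µM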
# Rango complex inh – qHTS Assay for Inhibitors of Rango (Ran-regulated importin-beta cargo) - Importin beta complex formation | Rango CFP/YFP FRET sensor + importin beta, 45 min | 0.031% of 340,000 active | AID 540263, 2011 | Potency, µM (top dose mostly 92.2 µM), for the others: at the highest dose inhibition of complex formation; active = rising FRET ratio curve, often small or poorly fitted; inconclusive = mostly compound fluorescence or quenching in the first reads; inactive = flat curves in all reads;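 also: potency is read from the fitted curve at half-maximal effect; 0% = DMSO wells and 100% = buffer wells lacking importin beta; nearly all actives have a fitted effect of over 15% in size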
# Target sequence (Q14974 whole entry, looked up): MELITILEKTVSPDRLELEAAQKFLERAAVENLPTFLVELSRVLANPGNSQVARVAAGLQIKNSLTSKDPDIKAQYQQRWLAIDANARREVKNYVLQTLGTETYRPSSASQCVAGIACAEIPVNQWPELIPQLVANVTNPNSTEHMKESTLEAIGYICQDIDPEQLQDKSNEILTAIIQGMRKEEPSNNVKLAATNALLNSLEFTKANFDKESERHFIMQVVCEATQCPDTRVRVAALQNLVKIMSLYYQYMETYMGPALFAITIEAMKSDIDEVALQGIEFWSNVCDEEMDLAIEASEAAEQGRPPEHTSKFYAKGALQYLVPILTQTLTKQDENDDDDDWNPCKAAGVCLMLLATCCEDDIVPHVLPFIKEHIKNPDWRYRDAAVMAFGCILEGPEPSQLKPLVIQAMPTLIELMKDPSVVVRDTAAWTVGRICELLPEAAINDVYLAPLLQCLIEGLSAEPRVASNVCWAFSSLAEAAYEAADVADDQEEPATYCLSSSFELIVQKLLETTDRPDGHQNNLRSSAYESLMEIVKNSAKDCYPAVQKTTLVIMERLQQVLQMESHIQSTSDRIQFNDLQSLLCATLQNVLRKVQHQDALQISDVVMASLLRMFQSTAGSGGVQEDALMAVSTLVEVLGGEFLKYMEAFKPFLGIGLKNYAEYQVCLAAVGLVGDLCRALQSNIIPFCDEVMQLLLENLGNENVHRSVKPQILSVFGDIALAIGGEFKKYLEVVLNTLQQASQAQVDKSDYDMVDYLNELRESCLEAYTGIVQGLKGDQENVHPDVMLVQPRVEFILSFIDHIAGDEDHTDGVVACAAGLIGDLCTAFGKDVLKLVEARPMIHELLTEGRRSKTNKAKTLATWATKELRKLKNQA
#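 FRET biosensor Rango (snurportin 1 IBB between N-terminal EYFP and C-terminal Cerulean), 50 nM in PBS/1 mM DTT/0.02% Tween-20/0.1% BSA, preincubated 5 min RT with compound; 0.125 microM importin beta added, 45 min RT, CFP/YFP FRET ratio read.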
# Rango dissoc inh – qHTS Assay for Inhibitors of RanGTP induced Rango (Ran-regulated importin-beta cargo) - Importin beta complex dissociation. Snurportin-1 (Homo sapiens) + GTP-binding nuclear protein Ran (Homo sapiens) + Importin …. Biochemical FRET Rango-importin beta, RanGTP-induced dissociation. Potency, µM (titrated, usually from 46.1 µM), for inactives: top-dose activity change, negative = inhibition. 0.071% of 340,000 active. AID 540253, 2011; active means falling FRET ratio curve, often poorly fitted, with flat reads before Ran was added; inconclusive means other falling curves, or compound fluorescence or quenching; inactive means flat or rising ratio curve;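 also: potency is read from the fitted curve at half-maximal effect; % of control where 0% means no effect; nearly all actives have a fitted effect of over 45% in size; -100% = wells without RanGTP and RCC1; the record marks most hits as doubtful in a second field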
#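 Recombinant Rango FRET biosensor (EYFP–snurportin 1 IBB–cerulean CFP10) at 0.1 uM premixed with 0.25 uM importin beta in PBS, 1 mM DTT, 0.02% Tween-20, 0.1% BSA. Compound added 5 min; RanGTP-RCC1 (0.6 uM Ran, 2 mM GTP, 0.2 uM RCC1) then triggers release, read at 45 min.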
# * = called active by the depositor; ? = inconclusive; . = not tested or not shown. Only part of the results is shown; count on the stated rates, not on these rows.
SMILES,miR-21 reporter,GLA inh pH 4.5,Rango complex inh,Rango dissoc inh
CCc1ccc(NC(=S)Nc2ccc(S(=O)(=O)Nc3ncccn3)cc2)cc1,-32%,0,1.4%,4%
CC(C)(C)NC(=O)COc1ccc(CNc2ncn[nH]2)cc1,0%,-8,-0.1%,-11%
COc1ccccc1-n1c(-c2cc(-c3ccc(F)cc3)n[nH]2)n[nH]c1=S,-16%,4,-2.2%,-3%
CC(C)(C)C1CCC(C(=O)OCC(=O)N2CCN(C(=O)c3ccco3)CC2)CC1 (stereo not given),-5%,4,-0.9%,5%
Oc1ccc(-c2nccc(-c3ccccn3)n2)cc1,-57%,.,6.7%,-3%
Cc1ccccc1-n1c(SCC(=O)N(C)C2CCS(=O)(=O)C2)nc2ccccc2c1=O (stereo not given),-16%,0,-2.1%,6%
COC1=NS(=O)(=O)c2ccccc21,0%,-4,3.7%,6%
[O-]/[N+](=C\c1ccncc1)c1ccc(Br)cc1,-35%,-4,0.9%,2%
Cc1cc(-n2c(C)cc(C(=O)CSc3nc(N)cc(=O)[nH]3)c2C)no1,9%,-12,-0.5%,-14%
CN1CCN(S(=O)(=O)c2cccc(C(=O)Oc3cccc(C#N)c3)c2)CC1,.,.,-2.3%,-15%
CN(C)CCN(C(=O)c1ccc2c(c1)OCCO2)c1nc2ccc(Cl)cc2s1,-37%,-1,-0.6%,-2%
N#Cc1c(NC(=O)c2ccc(Cn3cc(Br)cn3)o2)sc2c1CCCCC2,-25%,0,-4.9%,1%
COc1cc(Nc2cc(C)nc3ncnn23)cc(OC)c1OC,-4%,-5,-0.6%,6%
CN=c1nc(-c2ccccc2)n(-c2ccccc2)s1,.,-3,-2.4%,0%
COC(=O)/C(=C/c1ccc(F)cc1)NC(C)=O,1%,-3,0.2%,1%
Cc1cc(C)n2nc(C(=O)N(C)C(c3ccccc3)c3ccccc3)nc2n1,0%,7,1.4%,?
COc1cccc(/C=N/Nc2nc3ccccc3[nH]2)c1O,15%,-2,-0.7%,-5%
CC(=O)Oc1c(Cl)cc(Cl)cc1/C=C/c1ccc2ccccc2n1,-20%,1,?,?
COc1cccc(CNS(=O)(=O)c2c(C(=O)N3CCCCCC3)c(C)n(C)c2C)c1,-4%,.,0.1%,2%
COc1ccc(/C=C/C(=O)Nc2nc(N)n(-c3ccccc3)n2)cc1,-1%,-2,0.5%,-9%
NC(=O)c1cc(S(=O)(=O)N2CCOCC2)ccc1N1CCCC1,-1%,.,1.1%,4%
O=C(CNC(=O)c1cc2c(n(-c3ccccc3)c1=O)CCCC2=O)c1ccccc1,?,.,0.3%,15%
CCOCCCNC(=S)N(CCO)Cc1cc2cc3c(cc2[nH]c1=O)OCCO3,-12%,.,0.4%,8%
Nn1c(SCC(=O)Nc2ccc3c(c2)OCCO3)nnc1C(F)(F)F,4%,3,-4.8%,-6%
O=C(CN1CCCCC1)Nc1ccc(S(=O)(=O)N2CCCCCC2)cc1,-7%,4,0.1%,11%

# Structures from the list above with a cyano group, in the order listed:
SMILES,miR-21 reporter,GLA inh pH 4.5,Rango complex inh,Rango dissoc inh
CN1CCN(S(=O)(=O)c2cccc(C(=O)Oc3cccc(C#N)c3)c2)CC1,.,.,-2.3%,-15%
N#Cc1c(NC(=O)c2ccc(Cn3cc(Br)cn3)o2)sc2c1CCCCC2,-25%,0,-4.9%,1%

# Continuation:
SMILES,miR-21 reporter,GLA inh pH 4.5,Rango complex inh,Rango dissoc inh
COc1ccc(NC2=CC(c3ccc(OC)c(OC)c3)N(c3ccc(OC)cc3)C2=O)cc1 (stereo not given),-15%,11,-3.1%,-14%
COC(=O)CCc1c[nH]c2ccc([N+](=O)[O-])cc12,.,.,0.7%,14%
S=C(Nc1cc(Cl)ccc1Oc1ccccc1)N1CCN(c2ccccn2)CC1,?,.,1.1%,1%
O=C(O)CC1(CC(=O)O)Nc2ccccc2SC1=O,.,.,0.3%,9%
O=C1/C(=C/c2ccccn2)SC(=S)N1N1CCOCC1,-4%,-13,3.8%,-1%
COc1cccc(C(=O)Nc2nnc(-c3ccc(Cl)cc3)o2)c1,4%,4,-0.5%,1%
CCCNC(=O)Nc1cc(OC)c(OC)cc1Cc1nccc2cc(OC)c(OC)cc12,-6%,.,-0.2%,-10%
Cc1cc(=O)n2[nH]c(=O)c(N=Nc3ccccc3)c2[nH]1,-7%,-6,-0.9%,16%
O=C(C[C@H]1C/C=C\C[C@H](NC(=O)OCC2c3ccccc3-c3ccccc32)C(=O)OC[C@@H]2CCCN2C1=O)NCCO,.,.,-0.8%,-19%
CCOC(=O)Cn1c(=O)oc2cc(S(=O)(=O)N(CCN(C)C)Cc3ccccc3)ccc21,-3%,-5,-1.8%,-2%
Fc1ccc(-c2csc(NC(=S)Nc3ccccc3)n2)cc1,-18%,.,0.0%,0%
CC(C)NC(=O)NC(=O)COC(=O)/C=C/c1ccc2c(c1)OCO2,-3%,4,-0.3%,12%
c1ccc(COc2ccc(OCCN3CCCC3)cc2)cc1,-51%,7,3.2%,8%
Cc1ccc(S(=O)(=O)NCC2CCC(C(=O)N3CCOCC3)CC2)cc1 (stereo not given),-3%,.,3.7%,7%
Cc1cc([N+](=O)[O-])ccc1NC(=O)CSc1nnc(C)n1C,10%,.,2.6%,3%
COC(CNC(=O)C(=O)NCC1OCCN1S(=O)(=O)c1ccccc1)OC (stereo not given),.,.,-2.1%,8%
COc1cc(/C=N/NC(=O)c2cc(-c3ccccc3)nc3ccccc23)cc(OC)c1O,-2%,.,-0.9%,-7%
CC(C)N(C(=O)CSc1nnc(Cn2nnc3ccccc32)n1C)C(C)C,-2%,-3,3.6%,-2%
CN(CC(=O)N1CCN(c2ccccn2)CC1)S(=O)(=O)c1cccc2nsnc12,-1%,-4,-3.6%,1%
Cc1ccc(N(CC(=O)NCC2CCCO2)C(=O)CCC(=O)Nc2ccccn2)cc1 (stereo not given),1%,1,-0.9%,0%
COc1ccc(C(=O)N(c2ccccn2)C2CCCCC2)c(OC)c1,0%,-4,1.7%,15%
CCCCC(=O)Nc1ccccc1C#N,-4%,1,0.4%,-1%
COc1ccccc1N1CCN(C(=O)c2cc(C)on2)CC1,-6%,.,-0.1%,-1%
Cc1cc(C)c(S(=O)(=O)NCCCn2ccnc2)c(C)c1,-5%,-10,5.1%,-2%
CCOC(=O)CSc1nc2sc3c(c2c(=O)[nH]1)CC(C)(C)OC3,-5%,3,-0.1%,-6%
# Continuation:
SMILES,miR-21 reporter,GLA inh pH 4.5,Rango complex inh,Rango dissoc inh
C#CCOCCOCCOCCNc1nc(N2CCN(C(=O)[C@H](CCCCN)n3cc([C@@H](N)[C@H](C)CC)nn3)CC2)nc(N2CCN(C(=O)[C@H](CCC(=O)O)n3cc([C@@H](N)CCSC)nn3)CC2)n1,.,.,0.1%,-3%
Cc1ccc(S(=O)(=O)N2CCOCC2)c(C)c1NS(C)(=O)=O,-5%,3,0.2%,38%
CN(c1ccccc1C(=O)N1CCN(c2ccccc2)CC1)S(C)(=O)=O,-5%,-2,?,6%
O=C(N/N=C/C=C\c1ccco1)c1cccs1,-6%,-2,?,-4%
O=C(NCc1n[nH]c(=S)n1-c1cccc(C(F)(F)F)c1)c1ccco1,1%,.,4.5%,-12%
O=C(OCc1ccccc1F)c1cc2ccccc2cc1O,-16%,.,3.6%,-15%
CCCS(=O)(=O)N1CCn2c(nc3ccccc32)C1,-10%,-1,2.1%,9%
CCN(CC)c1ccc(Nc2nc(N3CCOCC3)c3ccccc3n2)cc1,29%,-6,-0.4%,-3%
O=C(O)CN1C(=O)C2(OCCO2)c2cc(Br)ccc21,.,.,-2.2%,-1%
O=c1[nH]c2cc3c(cc2cc1CN(Cc1ccco1)C(=S)NCCCN1CCOCC1)OCCO3,-19%,4,-1.0%,-11%
Cc1cc(C)cc(OCC(=O)NNC(=O)C2CCCO2)c1 (stereo not given),-2%,-8,-1.9%,1%
NC(=O)C1CCN(C(=O)COc2ccc3c(c2)oc(=O)c2ccccc23)CC1,-10%,.,2.6%,-15%
CN(C)c1ccc(NC(=O)c2ccc3nc[nH]c3c2)cc1,-58%,.,-0.2%,2%
COc1ccc(Br)cc1CN(C)CC(=O)Nc1cc(Cl)cc(Cl)c1,-4%,-6,-0.7%,0%
N#Cc1ccc(-c2ccccc2)nc1SCC(=O)c1cc2ccccc2oc1=O,-3%,-8,?,16µM*
CCOc1ccc(NC(=S)N(CCOC)C(C)c2ccco2)cc1 (stereo not given),-2%,8,0.2%,-8%
CCCCOc1ccc(C(=O)Nc2ccc(N3CCN(C(C)=O)CC3)cc2)cc1,2%,-16,0.8%,-1%
CCC(CC)c1nnc(NC(=O)c2cc([N+](=O)[O-])ccc2N2CCCCC2)s1,4%,-2,?,1%
COc1ccccc1-n1cnnc1SCC(=O)NCc1cccs1,-5%,4,3.8%,-4%
COc1ccc(S(=O)(=O)N(C(=O)c2ccco2)c2cc3sc(=O)oc3c3ccccc23)cc1,-1%,-21,4.0%,16%
COc1cc(C2C(N3C(=O)c4ccccc4C3=O)C(=O)N2c2cccc(C)c2)cc(OC)c1OC (stereo not given),-8%,2,.,.
COc1ccc(-c2nn(-c3ccccc3)cc2C(=O)N(C)CC(=O)Nc2ccc(N3CCOCC3)cc2)cc1,.,.,-0.9%,-4%
Cc1cc(C(=O)OCC(=O)Nc2cc(S(=O)(=O)N(C)C)ccc2C)c2ccccc2n1,0%,1,-2.7%,1%
O=C1NC(=S)NC1=Cc1ccc2c(c1)CCC2,.,.,?,?
O=C(NCCN1CCCCC1)c1ccco1,-1%,-3,2.0%,-16%

# Whole records, looked up by structure:
# Cc1cc(C)cc(OCC(=O)NNC(=O)C2CCCO2)c1 (stereo not given) is listed with miR-21 reporter: -2%; GLA inh pH 4.5: -8; Rango complex inh: -1.9%; Rango dissoc inh: 1%
# Cc1cc(C(=O)OCC(=O)Nc2cc(S(=O)(=O)N(C)C)ccc2C)c2ccccc2n1 is listed with miR-21 reporter: 0%; GLA inh pH 4.5: 1; Rango complex inh: -2.7%; Rango dissoc inh: 1%

# (more compounds)
SMILES,miR-21 reporter,GLA inh pH 4.5,Rango complex inh,Rango dissoc inh
CSc1ccccc1NC(=O)C1CC(c2ccccc2O)=NO1 (stereo not given),-8%,-11,-6.8%,34%
O=C(Nc1nc2ccccc2[nH]1)c1ccc(F)cc1,16%,-14,3.5%,1%
COc1ccc(NC(=O)CN2CCN(S(=O)(=O)c3ccc(F)cc3)CC2)cc1Cl,0%,-2,-0.3%,11%
CCCc1sc(N2CCCC(C(N)=O)C2)nc1-c1ccccc1 (stereo not given),-7%,3,-1.6%,-2%
COc1ccc(CCNC(=O)C2CC(c3ccc(C(F)(F)F)cc3)=NO2)cc1 (stereo not given),-1%,2,-0.8%,7%
COc1cccc(/C(O)=C2/C(=O)C(=O)N(Cc3ccco3)C2c2ccncc2)c1 (stereo not given),1%,-10,4.5%,-24%
Cc1cccc(NC(=O)c2cc(-c3ccccn3)nc3ccccc23)c1C,-1%,4,0.7%,23%
CCCCn1c(N)c(N(CC(C)C)C(=O)C2CCC2)c(=O)[nH]c1=O,.,.,-1.2%,7%
Cc1cccc(C(=O)N[C@H](C(=O)NCCc2ccc(Cl)cc2)C(C)C)c1,0%,.,3.8%,4%
COc1ccccc1CNC(=O)COC(=O)/C=C/c1ccc(OC(F)F)c(OC)c1,.,.,1.1%,-8%
CN(C)S(=O)(=O)c1ccc(C(=O)OCn2nnc3ccccc3c2=O)cc1,-4%,12,0.1%,-7%
Cc1ccc(C)n1CCN1CCN(C(=O)CC#N)CC1,-2%,-2,?,-24%
O=C(c1ccccc1)N1CCN(CC(O)COc2ccc(Br)cc2)CC1 (stereo not given),10%,.,-0.4%,?
Cc1ccc(S(=O)(=O)N(C)c2ccc(C(=O)NCc3ccccc3F)cc2)cc1,.,.,0.0%,3%
CSc1ccc(/C=C(\NC(=O)c2ccc(C)cc2)C(=O)NN)cc1,2%,-1,-3.7%,14%
Cc1ccc[n+](CC(=O)Nc2nc3ccccc3s2)c1,-6%,5,1.8%,1%
